# Assay outcomes: PubChem BioAssay, National Center for Advancing Translational Sciences (NCATS)
# gsp ag: gsp mutant agonism; gsp mutant cells, cAMP HTRF, 30 min; control for the full effect not named in the record; AID 624287; 340,000 compounds, 0.13% hits; Potency, µM (titrated, usually from 76.9 µM), for inactives: at the top dose activation (cAMP increase), actives largely listed as activators; active = well fitted activation curve with a large enough effect; inconclusive = small, poorly fitted or top-dose-only effect, or another doubt; inactive = no such curve, though single readings can be large or run the other way; cell line not stated here;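 note: phosphodiesterase inhibitor Ro 20-1724 added with compounds to block cAMP breakdown; potency is the fitted concentration of half-maximal effect; nearly all actives have a fitted effect of over 60% in size; about a fifth of the inactives were tested at one dose only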
#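 Cells in DMEM/10% FBS with G418 were pretreated with compounds in DMSO plus […] (300 uM stock) for 30 min at 37C. cAMP was measured by HTRF (cAMP-d2 plus anti-cAMP antibody-K) after 30 min at room temperature.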
# Menin MLL FP FL: inhibitors of human menin-MLL interaction, wild-type MLL peptide | Fluorescence polarization, fluorescein-MLL peptide displacement from menin | FP activity change, % at 61.4 µM | 290,000 tested, under 10 active | AID 1766; inconclusive = falling polarisation curve, or a change in total fluorescence; inactive = total fluorescence flat and polarisation flat or rising; no compound was filed as active; the % refers to the polarisation; negative = inhibition;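 note: % of control where 0% means no effect; inhibitors lower the polarisation; unlabelled MLL peptide was the positive control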
# ClpP mod: qHTS Assay for Activators of ClpP. Potency, µM (top dose mostly 57.5 µM), for the others: at the highest dose activity change, negative = active. 340,000 compounds, 1.9% hits. purified B. subtilis ClpP, FRET peptide cleavage, 20 min. AID 651965, 2013; active = well fitted falling curve with a large enough effect; inconclusive = small, poorly fitted or top-dose-only effect; inactive = no such curve, though single readings can be large or run the other way; note: potency is the fitted concentration of half-maximal effect; the source files actives as falling curves though it sought activators and does not explain the sign; nearly all actives have a fitted effect of over 65% in size; many hits overshoot -100%
# Target sequence (P80244 whole entry, looked up): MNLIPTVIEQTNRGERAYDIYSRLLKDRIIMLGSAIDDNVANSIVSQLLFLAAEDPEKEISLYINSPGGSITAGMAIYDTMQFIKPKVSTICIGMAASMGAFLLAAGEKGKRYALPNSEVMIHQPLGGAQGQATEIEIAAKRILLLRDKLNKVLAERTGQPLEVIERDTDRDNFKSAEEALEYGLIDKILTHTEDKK
#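 FRET quenching reversal measured ClpP activation: 10 microg/mL B. subtilis ClpP at pH 8 with the FRET-FV decapeptide, read at 430 nm after 320 nm excitation. The 20-min minus 0-min signal was scaled between DMSO/no-enzyme wells and ADEP (5.8 microM final).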
# Sfp PPTase inh: Sfp phosphopantetheinyl transferase inhibition | AID 1490 | Potency, µM, for the others: max response, negative = inhibition, actives largely listed as inhibitors | Biochemical Sfp PPTase activity, qHTS | 310,000 compounds, 3.5% hits | Q9F4F7; active = well fitted inhibition curve with a large enough effect; inconclusive = small, poorly fitted or top-dose-only effect, or another doubt; inactive = no such curve, though single readings can be large or run the other way;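 note: the enzyme is Sfp with the accession as filed and its product quenches rhodamine fluorescence; potency is the fitted concentration of half-maximal effect; 0% = enzyme reaction without inhibitor and -100% = no enzyme wells; top concentration of the series not given in the record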
#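 Reaction rates are the 30-min fluorescence difference (ex 525, em 598 nm) in wells containing 15 nM Sfp, 5 uM rhodamine-CoA and 12.5 uM BHQ-2-YbbR at pH 7.6 with 10 mM MgCl2.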
# gsp antagonist: antagonists of gsp mutant (McCune-Albright syndrome); gsp-mutant cells, cAMP HTRF, 30 min; control for the full effect not named in the record; Potency, µM (highest dose often 76.9 µM), inactives show at the highest dose activity change, negative = inhibition, actives largely listed as inhibitors; 340,000 compounds, 0.4% hits; AID 624288; active = falling curve of any shape with a large fitted effect; inconclusive = falling curve, mostly with a smaller effect; inactive = flat or rising curve; cell line not stated here;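 note: intracellular cAMP measured with PDE inhibitor Ro 20-1724 present during compound exposure; potency is the fitted concentration of half-maximal effect; % is set by controls: 0 for no effect and ±100 for the full control effect; nearly all actives have a fitted effect of over 65% in size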
#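 G418-selected cells were plated in DMEM/10% FBS for 16-24 h at 37C, then treated with compounds plus the PDE inhibitor […] (300 uM solution added) for 30 min at 37C. Intracellular cAMP was measured by HTRF after 30 min lysis at room temperature.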
# PINK1 modulator: modulators of PINK1 expression; PINK1 immunofluorescence, high-content cytometry, 24 h; Potency, µM (highest dose often 76.6 µM), for the others: top-dose activation (PINK1 increase), hits mostly activators; 410,000 compounds, 0.2% hits; AID 624263; active = well fitted activation curve with a large enough effect; inconclusive = small, poorly fitted or top-dose-only effect; inactive = flat fitted curve, though single readings scatter; cell line not stated here;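 note: potency is the fitted concentration of half-maximal effect; % of control where 0% means no effect; nearly all actives have a fitted effect of over 65% in size; a mitochondrial uncoupler was the plate control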
#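 Stable cell line treated 24 h with compounds at 5 concentrations (CCCP controls), then fixed and immunostained for PINK1 plus nuclear and cell stains; PINK1 immunofluorescence quantified by laser-scanning microplate cytometry.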
# D2 ag: activates the human D2 dopamine receptor; 360,000 compounds, 0.084% hits; AID 624465; activation, % (test concentration not listed); DiscoveRx PathHunter D2 beta-arrestin, luminescence, 90 min; 100% = 57 uM dopamine signal; in the data active = activation above about 40%; inconclusive = about 15% to 40%; inactive = below about 15%; note: compound concentration not given in the record; the text of the record calls up to 30% inactive
# Target sequence (P14416 whole entry, looked up): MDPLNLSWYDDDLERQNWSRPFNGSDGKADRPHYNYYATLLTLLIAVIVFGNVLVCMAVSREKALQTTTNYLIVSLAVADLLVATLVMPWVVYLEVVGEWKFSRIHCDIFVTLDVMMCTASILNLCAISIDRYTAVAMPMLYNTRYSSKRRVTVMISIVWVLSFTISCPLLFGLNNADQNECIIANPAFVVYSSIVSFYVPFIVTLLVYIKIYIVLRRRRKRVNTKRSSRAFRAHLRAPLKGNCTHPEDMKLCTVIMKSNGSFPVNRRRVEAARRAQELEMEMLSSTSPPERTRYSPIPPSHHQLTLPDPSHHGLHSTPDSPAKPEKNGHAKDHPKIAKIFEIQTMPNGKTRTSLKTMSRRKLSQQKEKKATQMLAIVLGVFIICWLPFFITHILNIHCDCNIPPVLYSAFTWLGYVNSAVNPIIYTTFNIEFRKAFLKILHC
#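 DiscoveRx PathHunter D2 beta-arrestin cells (2,100/well) attached overnight, then compound-stimulated 90 min at 37 C in HBSS/10 mM HEPES/0.1% Tween-20 buffer; beta-galactosidase complementation read by luminescence after 1 h at ambient temperature. Dopamine 57 uM final (EC100) as control.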
# An asterisk follows results filed as active; ? = inconclusive; . = not tested or not shown; & = joins results of further samples; [ ] = remark or other dose.
SMILES,gsp ag,Menin MLL FP FL,ClpP mod,Sfp PPTase inh,gsp antagonist,PINK1 modulator,D2 ag
CCC(C)(C)NC(=O)C(c1ccc(OC)cc1)N(Cc1ccc(OC)cc1)C(=O)CCC(=O)Nc1cc(C)on1 (stereo not drawn),-8%[15.4 µM],8.1,-4.9%,4%,2%,1.6%,-2.3
Cc1ccc(C(=O)NCCCNc2ccccc2[N+](=O)[O-])cc1,0%,-1.0,.,9%,-9%,-0.7%,-0.9
O=[N+]([O-])c1cc(-c2cnc3ccccc3n2)ccc1Oc1ccc(F)cc1,1%,-3.1,-0.9%,-7%,-20%,4.8%[38.3 µM],-0.3
O=C(CSc1cn(CCNC(=O)c2cccs2)c2ccccc12)NCC1CCCO1 (stereo not drawn),-32%[inhibitor],-0.6,0.2%,11%,-7%,-1.5%,-2.2
COc1ccc(-n2c(SCC(=O)Nc3ccc(C(=O)O)cc3)nnc2-c2ccccc2)cc1OC,16%,-2.0,-2.6%,15%,8%,-0.5%,0.8
COc1ccc(CNCc2ccc3ccccc3c2)c(OC)c1,-4%,-8.8,-3.6%,-13%,5%,19%,-2.6
COc1ccccc1N1CCN(/N=C/c2ccc(O)c(O)c2)CC1,0%,-4.0,.,22µM*,9%,3.7%,11
Cc1c(OCC(=O)NCC(O)c2ccccc2)ccc2c(-c3ccccc3)cc(=O)oc12 (stereo not drawn),.,-2.1,-11%,16%,28µM*,2.2%,8.3
Cc1nnc(N)s1,-67%[inhibitor],2.2,0.7%,6%,14%,-0.1%,-3.9
O=C(CCCn1c(=O)[nH]c2ccccc2c1=O)N1CCN(c2ccccn2)CC1,24%,2.4,-12%,8%,2%,-0.7%,2.5
O=C(N/C(=C/c1ccc(Br)cc1)C(=O)N1CCCC1)c1ccccc1F,26%,2.3,0.6%,-17%,16%,-1.1%,-2.0
O=C(O)C1=NOC(CNc2ncc(C(F)(F)F)cc2Cl)C1 (stereo not drawn),12%,-3.9,.,11%,13%,0.6%,8.5
Cc1ccc2c(c1)N(C(=O)CCC(=O)NCC(C)c1ccccc1)CC(C)O2 (stereo not drawn),-42%[inhibitor],-1.5,-2.1%,6%,-14%,0.0%,-1.3
Cc1ccnc(N/C=C/C(=O)c2ccc(Br)cc2)c1,11%,25,.,-4%,3%,6.4%,2.6
CCc1nc2ccccc2c(C(=O)Oc2ccc(C(=O)OC)cc2)c1C,13%,6.2,.,12%,4%,1.7%,-0.3
O=C(N/C(=C/c1cccc([N+](=O)[O-])c1)C(=O)N1CCCC1)c1ccccc1,2%[15.4 µM],1.1,.,3%,13%,-0.2%,0.1
N#CC1(N2CCN(C(=O)c3ccccc3)CC2)CCCCC1,-37%[inhibitor],-4.3,2.9%,23%,7%,-0.5%,1.0
CN(C(=O)COC(=O)c1cccc(S(=O)(=O)N(C)c2ccccc2)c1)C1CCCCC1,-49%[inhibitor],.,2.2%,.,-30%,2.6%,-1.4
COc1cc(C(=O)Oc2c(OC)cc(C(=S)N3CCOCC3)cc2OC)cc(OC)c1OC,-9%,-1.2,-0.7%,9%,16%,1.2%,-0.4
O=C(OCC1OC(Oc2ccc(O)cc2)C(O)C(O)C1O)c1ccccc1 (stereo not drawn),.,.,-0.3%,.,6%,0.1%,1.5
Cn1c(=O)c2c(nc(N/N=C/c3ccncc3)n2Cc2ccccc2)n(C)c1=O,-10%[15.4 µM],0.7,-16%,13%,-1%,3.1%,-4.4
CN(C)c1ncc(S(=O)(=O)c2ccccc2)c(N)n1,24%,-0.9,.,-17%,9%,1.4%,6.6
CSCCC(NC(=O)c1ccccc1Br)C(=O)NC(C)CCc1ccccc1 (stereo not drawn),-55%[inhibitor],-2.1,-4.4%,15%,0%,?,0.2
COc1ccc(N(C)C(=O)c2cc3c(s2)-c2ccc(Cl)cc2S(=O)(=O)C3)c(OC)c1,-6%,-8.6,3.6%,-3%,?,-1.5%,0.0
Cc1ccc(C(=O)N2CCN(S(=O)(=O)c3sc(C(=O)O)c(C)c3C(=O)O)CC2)s1,4%,.,1.8%,.,10%,0.6%,0.5
CCCc1nn(C)c(C(=O)Nc2ccc(CC)cc2)c1Cl,12%,-0.3,-5.2%,-5%,3%,12%,-1.0
O=C(CC1S/C(=N/N=C2CCCCCC2)NC1=O)Nc1ccccc1C(F)(F)F (stereo not drawn),-7%[15.4 µM],0.4,.,11%,10%,0.2%,-1.4
COc1ccc(NS(=O)(=O)c2ccc(NC(=O)c3ccccc3Br)cc2)nn1,-1%,1.4,.,17%,-11%,-1.9%,0.0
S=c1[nH]nc(COc2ccccc2)n1/N=C/c1ccccc1Br,-3%[15.4 µM],2.6,1.0%,2%,-11%,3.4%,-1.0
Cc1cc(C)n(-c2cc(Cl)cc(Cl)c2)c(=O)c1C#N,1%,1.7,0.9%,11%,-3%,-1.3%,-2.4
CCN1C=C(C(=O)c2ccccc2)C(=O)CC1,.,.,0.7%,.,-4%,1.9%,-1.4
CCc1cc(=O)oc2c(CNCc3ccccc3F)c(O)c(Cl)cc12,-33%[inhibitor],-1.0,3.8%,-18%,5%,3.3%,-1.8
NC(=Nc1ccccc1)NC(=O)c1nc(Cl)c(N)nc1N,.,1.1,4.6%,-23%&-10%,6%,1.4%,-4.6
c1cncc(CNc2cc(-c3ccoc3)ncn2)c1,.,?,.,56µM*,.,0.0%,.
CCCCN(CC)CCNC(=S)Nc1ccc2nc(N3CCN(C)CC3)cc(C)c2c1,35%[15.4 µM],-0.9,.,-9%,8%,3.1%,-4.9
CNCc1ccccc1Sc1ccc(OC)cc1,8%,-2.3,3.5%,-3%,-9%[15.4 µM],1.1%,-3.6
COc1ccc(-c2ccc(CCC(=O)O)n2-c2ccc(O)cc2)cc1,1%,0.2,.,4%,-6%,0.7%,4.3
COc1ccccc1CN1CCC2(CCNCC2)CC1,.,-6.8,.,3%,.,-0.5%,.
CC(=O)c1c(C)[nH]c(C(=O)CN2C(=O)NC(C)(c3ccc4c(c3)OCO4)C2=O)c1C (stereo not drawn),-5%,0.8,1.8%,12%,5%,1.8%,-1.1
Cc1ccc(SCCN2CCN(C)CCC2=O)cc1,.,6.2&-1.4,0.2%,12%&5%,10%,-0.6%,-1.4
Cc1ccc(CNc2ncc(-c3ccccc3)n2C)o1,-21%,-3.1,-12%,-18%,5%,7.6%,-1.8
CCn1cc(CN2CCC(n3nccc3NC(=O)c3ccc4c(c3)OCO4)CC2)c(C)n1,13%,.,-1.1%,13%,10%,-2.1%,-6.5
COc1cc(NC(=O)c2ccc(OCc3c(C)noc3C)c(OC)c2)cc(OC)c1,?,.,-1.1%,.,-25%,2.2%,3.4
CC(C)CC(CCc1ccccc1)OS(N)(=O)=O (stereo not drawn),.,-10,0.1%,14%,3%,2.8%,1.0
COc1ccc(-n2c(-c3cnccn3)n[nH]c2=S)cc1,?,0.4,-1.0%,50µM*,-16%,6.8%[38.3 µM],6.0
Cc1ccc(NCc2nc3ccccc3n2CCOc2ccccc2)cc1,-2%,-3.2,-2.0%&1.6%,?,-9%,1.0%&14%,-1.7
CN(C)c1ccc(-n2cccc2/C=C/[N+](=O)[O-])cc1,-7%[15.4 µM],-0.9,2.4%,?,-43%,-4.0%,0.3
C=CCn1c(SCC(=O)NC(N)=O)nnc1-c1cc2c(s1)CCC(CC)C2 (stereo not drawn),-4%[15.4 µM],-1.8,-1.6%,-18%,-7%,-2.0%,-5.0
Cc1ccc(C(=O)C(C)OC(=O)C2CCN(c3ccc(C(F)(F)F)cn3)CC2)cc1 (stereo not drawn),?,.,-5.1%,.,-4%,7.1%,0.1
O=C(O)CCc1ccc(-c2cccs2)n1NC(=O)c1ccc(Cl)cc1,-13%,5.8,-8.1%,25µM*,-9%,.,-0.7
# Continuation.
SMILES,gsp ag,Menin MLL FP FL,ClpP mod,Sfp PPTase inh,gsp antagonist,PINK1 modulator,D2 ag
O=C(Nc1cccc(S(=O)(=O)N2CCCC2)c1)c1ccco1,3%,.,-3.1%,.,-6%,0.1%,2.0
O=C(Cc1ccccc1)NCc1n[nH]c(=S)n1-c1ccc(Br)cc1,-10%[15.4 µM],0.3,.,9%,-9%,1.6%,-5.2
S=C1SCN(CC2CC2)CN1CC1CC1,-13%,-2.5,.,35µM*,5%,3.0%,-8.6
COc1ccc(CNC(=O)C[C@H]2C(=O)N(Cc3ccccc3)C[C@@H]2Cc2ccccc2)cc1,?,1.4,1.2%&1.0%,15%,-25%,0.3%,-3.5
O=C(c1cc(S(=O)(=O)N2CCOCC2)ccc1F)N1CCN(Cc2ccccc2)CC1,6%,2.5,0.4%,13%,3%,4.9%[38.3 µM],-2.0
Cc1ccc(NC(=O)c2ccc(OC(=O)c3ccco3)cc2)cc1,-19%,3.2,1.3%,12%,0%,14%[38.3 µM],1.7
COc1ccc(C2/C=C\CN(C(=O)Nc3ccccc3)CC(=O)N2Cc2ccc(F)cc2)cc1 (stereo not drawn),.,0.3,-0.4%,20%,-2%,0.1%,-1.8
CC(=O)c1ccc(NC(=O)N[C@@H](Cc2ccccc2)C(=O)O)cc1,12%,4.3,0.4%,15%,8%,0.6%[38.3 µM],-2.3
COc1ccc(S(=O)(=O)N2CCC(C(=O)NCC3CCCO3)CC2)cc1Cl (stereo not drawn),-39%[inhibitor],-1.3,.,15%,3%,2.3%,1.2
Cc1nn(Cc2ccc(F)cc2)c(C)c1NC(=O)c1cnn2c1NC(c1ccccc1)CC2C(F)(F)F (stereo not drawn),-23%,3.4,-0.8%,5%,2%,-2.7%[38.3 µM],-1.5
Cc1ccc(NC(=O)CSc2ccc3c(c2)OCCO3)c(O)c1,5%,.,-2.9%,10%,-3%,0.4%,-0.3
CCOC(=O)N1CCC(NC(=O)c2cc(C(=O)NCC(OC)OC)ccc2CO)CC1,-3%,-1.2,1.2%,2%,-2%,-1.2%,-3.4
Cc1ccsc1C1C(C#N)=C(N)Oc2n[nH]c(C)c21 (stereo not drawn),-22%[15.4 µM],-2.0,-1.2%,6%,7%,5.7%,-2.8
